Screening results as filed in PubChem BioAssay.
gsp antagonist = antagonists of gsp mutant (McCune-Albright syndrome). gsp-mutant cells, cAMP HTRF, 30 min; control for the full effect not named in the record. Potency, µM (top dose mostly 76.9 µM), for inactives: at the highest dose activity change, negative = inhibition, actives largely listed as inhibitors. 340,000 tested, 0.4% active. AID 624288; active = falling curve of any shape with a large fitted effect; inconclusive = falling curve, mostly with a smaller effect; inactive = flat or rising curve; cell line not stated here;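 note: intracellular cAMP measured with PDE inhibitor Ro 20-1724 present during compound exposure; potency is the fitted concentration of half-maximal effect; % is set by controls: 0 for no effect and ±100 for the full control effect; nearly all actives have a fitted effect of over 65% in size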
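Measurement of cellular cAMP by homogeneous time-resolved fluorescence following a 30 min compound exposure at 37C. The PDE inhibitor […] was present throughout; the assay buffer was DPBS with 0.05% BSA and 0.005% Tween 20.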
CtBP-E1A blk = blocks the CtBP interaction with E1A; AlphaScreen GST-E1A/His-CtBP binding, 1536-well; stronger effect = lower value; control for the full effect not named in the record; activity change, % (test concentration not listed); 340,000 tested, 0.49% active; in the data active means activity change below about -65%; inconclusive means about -30% to -65%; inactive means above about -30%; note: % is set by controls: 0 for no effect and ±100 for the full control effect; compound concentration not given in the record
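Protein mix (5X: 125 nM each GST-E1A, His-CtBP) was incubated with pinned compound 2 h at 37 deg C in dark, in 50 mM Tris pH 8.0 buffer with 300 mM NaCl. Glutathione donor and nickel acceptor beads followed; AlphaScreen signal read after 1 h.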
D2 agonist = human D2 receptor agonism in beta-arrestin assay | P14416 | 360,000 tested, 0.084% active | DiscoveRx PathHunter D2 beta-arrestin, luminescence, 90 min; 100% = 57 uM dopamine signal | activation, % (concentration not given with the values) | AID 624465; in the data active = activation above about 40%; inconclusive = about 15% to 40%; inactive = below about 15%; note: compound concentration not given in the record; the text of the record calls up to 30% inactive
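Agonist mode: compounds alone added to overnight-plated D2 PathHunter cells for 90 min at 37 C, with 57 uM final dopamine (EC100) defining full response. Beta-arrestin recruitment detected by chemiluminescent reagent, read after 1 h at ambient temperature.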
Six1-Eya2 inh = Six1/Eya2 interaction inhibition; activity change, % (test concentration not listed); Q15475+O00167; 360,000 tested, 0.56% active; AID 651725; AlphaScreen GST-Six1/His-Eya2 binding, biochemical; stronger effect = lower value; control for the full effect not named in the record; in the data active = activity change below about -65%; inconclusive = about -30% to -65%; inactive = above about -30%; note: % is set by controls: 0 for no effect and ±100 for the full control effect; compound concentration not given in the record
Target sequence (O00167 whole entry, looked up): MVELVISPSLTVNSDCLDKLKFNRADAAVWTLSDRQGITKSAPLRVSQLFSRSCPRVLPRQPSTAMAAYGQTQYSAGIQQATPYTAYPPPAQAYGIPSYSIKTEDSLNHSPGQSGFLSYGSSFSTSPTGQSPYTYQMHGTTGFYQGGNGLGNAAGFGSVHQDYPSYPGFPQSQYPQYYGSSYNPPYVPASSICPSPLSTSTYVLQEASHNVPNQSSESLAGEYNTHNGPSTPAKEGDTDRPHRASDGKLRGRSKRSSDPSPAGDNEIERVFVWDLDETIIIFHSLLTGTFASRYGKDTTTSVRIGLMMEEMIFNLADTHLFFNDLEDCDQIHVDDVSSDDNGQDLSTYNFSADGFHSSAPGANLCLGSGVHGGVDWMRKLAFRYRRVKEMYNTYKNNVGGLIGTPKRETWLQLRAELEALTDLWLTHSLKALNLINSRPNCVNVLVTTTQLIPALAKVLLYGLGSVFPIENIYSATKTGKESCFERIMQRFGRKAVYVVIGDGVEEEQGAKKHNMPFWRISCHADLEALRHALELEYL
Target sequence (Q15475 whole entry, looked up): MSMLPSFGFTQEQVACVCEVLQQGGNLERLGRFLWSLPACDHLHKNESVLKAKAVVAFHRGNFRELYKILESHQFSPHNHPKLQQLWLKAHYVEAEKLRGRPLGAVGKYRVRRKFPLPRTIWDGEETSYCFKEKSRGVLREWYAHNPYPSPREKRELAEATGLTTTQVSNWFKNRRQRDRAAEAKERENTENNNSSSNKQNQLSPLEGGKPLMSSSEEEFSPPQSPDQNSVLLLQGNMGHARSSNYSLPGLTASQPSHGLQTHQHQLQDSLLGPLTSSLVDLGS
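Homogeneous AlphaScreen proximity assay pairing GST-Six1 with His-tagged Eya2 (added as 5X mix: 250 nM and 500 nM) in 50 mM Tris pH 8.0, 300 mM NaCl, 1 mM TCEP. Glutathione donor and nickel acceptor beads; 1 h, 37 °C, dark.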
D2 PAM = positive allosteric modulators of human D2 dopamine receptor | DiscoveRx D2 beta-arrestin cells, luminescence, 90 min; 100% = 57 uM dopamine signal | potentiation, % (no concentration beside the values) | AID 624464 | 360,000 tested, 0.23% active | P14416; active = potentiation of 50% or more; inconclusive = 30% to 50%; inactive = 30% or less;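 note: compound concentration not given in the record; tested on top of an EC20 dose of dopamine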
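D2 cells co-treated with compound plus 50 nM dopamine (EC20) for 90 min at 37 deg C to detect potentiation. Beta-arrestin recruitment was read as enzyme-fragment luminescence after 1 h at ambient temperature. Full response was set by 57 uM dopamine.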
gsp ag = gsp mutant agonism; Potency, µM (highest dose often 76.9 µM), inactives show top-dose activation (cAMP increase), actives largely listed as activators; 340,000 tested, 0.13% active; gsp mutant cells, cAMP HTRF, 30 min; control for the full effect not named in the record; active = well fitted activation curve with a large enough effect; inconclusive = small, poorly fitted or top-dose-only effect, or another doubt; inactive = no such curve, though single readings can be large or run the other way; cell line not stated here;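 note: phosphodiesterase inhibitor Ro 20-1724 added with compounds to block cAMP breakdown; potency is the fitted concentration of half-maximal effect; nearly all actives have a fitted effect of over 60% in size; about a fifth of the inactives were tested at one dose only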
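Cells in DMEM/10% FBS with G418 were pretreated with compounds in DMSO plus […] (300 uM stock) for 30 min at 37C. cAMP was measured by HTRF (cAMP-d2 plus anti-cAMP antibody-K) after 30 min at room temperature.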
Numbers without * were called inactive; ? = inconclusive; . = no result given; [ ] = another dose, or the depositor's remark.

Below each compound: gsp antagonist | CtBP-E1A blk | D2 agonist | Six1-Eya2 inh | D2 PAM | gsp ag
> O=C(Cc1ccccc1)NNC(=S)NC(=O)c1cccnc1
  2% | 10 | 6.0 | 2 | -9 | ?
> Cc1ccc(C(=O)NCCSc2snnc2C)cc1
  4% | 1 | -1.6 | -2 | -24 | -17%
> NS(=O)(=O)c1cccc(NC(=O)COC(=O)CSCc2ccccc2)c1
  -5% | 6 | -6.0 | 3 | -25 | -9%[15.4 µM]
> Cc1[nH]nc2nc(SCC(=O)NCC3CCCO3)n(-c3ccc(Br)cc3)c(=N)c12 (stereo not drawn)
  -7% | ? | -0.4 | -65* | 16 | 6%
> Cc1ccc(C(=O)Nc2nc3ccccc3n3nnnc23)cc1
  -6% | 6 | -2.9 | -1 | -7 | 27%
> Cc1ccc(CC(=O)NNC(=O)c2ccncc2)cc1C
  5% | -2 | -4.0 | 6 | 13 | ?
> CS(=O)(=O)c1nc(-c2ccc(Br)cc2)n[nH]1
  5% | 3 | -3.5 | 4 | -2 | 6%[15.4 µM]
> Cc1cc(C)nc(NS(=O)(=O)c2ccc(NC(=O)C3CC3)cc2)n1
  3% | 2 | -0.3 | 5 | 2 | -6%[15.4 µM]
> COC(=O)CC/C(=N/Nc1ccc(Cl)c(Cl)c1)C(=O)OC
  5% | 2 | -5.3 | 26 | -3 | ?
> CCN1CCN(S(=O)(=O)c2ccc(Cl)c(C(=O)Nc3ccccc3N3CCCCC3)c2)CC1
  -20% | -12 | 0.1 | -7 | -2 | -12%[15.4 µM]
> CSc1ccc(Cl)c(C(=O)Nc2ccc(C)cn2)c1
  1% | 6 | 1.2 | 8 | 0 | 21%
> C=CCn1c(SCC(=O)NC2CCCCC2)nnc1-c1cccnc1
  7% | 0 | -4.0 | 7 | -8 | -83%[inhibitor]
> COc1ccc(NC(=O)CC2SC(=N)N(c3ccccc3)C2=O)c(OC)c1 (stereo not drawn)
  -3% | 11 | -4.9 | -3 | -8 | 0%[15.4 µM]
> C/C=C/C=[N+](\[O-])C(C)/C(=N/O)c1ccc(F)cc1 (stereo not drawn)
  7% | -5 | -0.3 | -3 | 0 | -6%
> CCc1cccc2c(C#N)cn(CC(=O)NCCOC)c12
  -13% | 7 | -2.7 | 1 | 3 | 8%
> Cc1cc(S(=O)(=O)N2CCCC2)ccc1OCC(=O)NCc1ccccn1
  10% | -4 | -4.4 | -2 | -2 | 4%[15.4 µM]
> CCOc1cc(C(=O)Nc2ccccc2F)cc(Br)c1OCC
  -14% | 17 | 2.0 | 2 | 1 | -7%[15.4 µM]
> Cc1cccc(C(=O)Nc2nnc(SCC(=O)NC3CC3)s2)c1
  -11% | 1 | 4.0 | 6 | -1 | -16%
> O=C1C(O)=C(O)C(=O)c2ccccc21
  0% | 16 | 12 | 5 | -26 | .
> CCCc1nc(-c2ccccc2O)n(-c2ccccc2)n1
  -2% | 4 | -3.6 | 21 | 1 | 6%
> CNC(=S)N1CCC(C(=O)c2ccc(Cl)cc2)CC1
  . | 18 | 3.4 | 28 | -2 | ?
> Cc1ccc(S(=O)(=O)Nc2ccc(Nc3ccccc3)cc2)cc1
  -11% | -12 | -0.7 | -13 | -1 | -19%
> Cc1ccc(O)c(C2=NOC(O)(C(F)(F)F)C2)c1 (stereo not drawn)
  -2% | 1 | -2.0 | 3 | 9 | -4%
> COc1ccc(S(=O)(=O)Nc2ccccc2C(=O)N2CCOCC2)cc1C
  2% | 20 | -2.4 | 15 | 2 | -4%
> Cc1cc(NC(=S)NC(=O)C2CC2)ccc1Br
  ? | 4 | 4.7 | -3 | -25 | 9%[15.4 µM]
> CC1=C(C(=O)N2CCOCC2)CC(CC(=O)NCc2cccc3ccccc23)C(=O)N1Cc1ccccc1 (stereo not drawn)
  . | 4 | 1.6 | -1 | 2 | -129%[inhibitor]
> Cc1ccc(NC(=S)NCCN2CCOCC2)cc1F
  0% | -2 | -1.4 | 2 | -8 | 16%
> CCOc1ccc(CCNC(=O)COC(=O)/C=C/c2ccc(C)o2)cc1OCC
  2% | 1 | 3.2 | -2 | -7 | -21%
> CCN(CC)CCn1c(=N)n(CCOc2ccccc2)c2ccccc21
  2% | -3 | -3.4 | -1 | -4 | -25%
> COc1ccc(Br)cc1/C=N/Nc1ccc(Cl)c(C(=O)O)c1
  4% | -2 | 3.1 | -19 | -19 | 3%[15.4 µM]

2 entries picked at random from those above:
Below each compound: gsp antagonist | CtBP-E1A blk | D2 agonist | Six1-Eya2 inh | D2 PAM | gsp ag
> O=C(Cc1ccccc1)NNC(=S)NC(=O)c1cccnc1
  2% | 10 | 6.0 | 2 | -9 | ?
> Cc1ccc(C(=O)Nc2nc3ccccc3n3nnnc23)cc1
  -6% | 6 | -2.9 | -1 | -7 | 27%

Going on with the list:
Below each compound: gsp antagonist | CtBP-E1A blk | D2 agonist | Six1-Eya2 inh | D2 PAM | gsp ag
> COc1ccc(-c2csc(Nc3ccc(S(=O)(=O)Nc4cc(OC)nc(OC)n4)cc3)n2)cc1
  ? | -21 | -9.6 | -17 | 8 | 9%
> Cc1ccc(-c2nc(CS(=O)(=O)CC(=O)NC3CC3)c(C)o2)cc1
  10% | . | 5.1 | 0 | -8 | 2%
> CCOc1ccc(S(=O)(=O)NCCC2=CCCCC2)c2ccccc12
  -1% | 16 | 1.3 | 4 | -10 | -4%
> O=C1CN(C(=O)OCc2ccccc2)c2ccccc2N1
  -7% | -2 | -2.6 | 0 | 11 | -19%
> CC(NS(=O)(=O)c1ccc(OCC(=O)N2CCOCC2)c(Cl)c1)c1ccccc1 (stereo not drawn)
  0% | -3 | -1.5 | -5 | -4 | 22%
> CCN(CC)S(=O)(=O)c1ccc(NC(=O)COC(=O)c2ccc(-n3nc(C)cc3C)cc2)cc1
  -3% | -7 | -0.6 | -3 | -9 | -6%
> Cc1cccc(NC(=O)c2cccc(NC3=NC4CS(=O)(=O)CC4S3)c2)c1 (stereo not drawn)
  9% | 1 | -6.3 | 1 | -7 | ?
> Cc1ccc2c(c1)c1c3n2CCN(C=O)C3CCC1 (stereo not drawn)
  5% | -19 | 3.5 | -14 | -3 | -8%
> c1ccc(-n2nnnc2SCc2cn3cccnc3n2)cc1
  5% | 6 | 1.4 | 1 | 3 | 43%
> O=C(O)c1ccc2c(=O)n3c(nc2c1)/C(=C/c1ccc(OC(F)F)cc1OC(F)F)CC3
  -16% | -5 | -3.3 | -1 | -2 | ?
> COC(=O)c1c(NC(=O)c2ccco2)sc2c1C(C(=O)OC)CC2 (stereo not drawn)
  2% | -1 | 0.6 | 6 | -5 | -5%
> CCOC(=O)c1c(C)[nH]c(C=C2C(=O)CCCC2=O)c1O
  -16% | 8 | -1.6 | -17 | -28 | -5%[15.4 µM]
> c1ccc(-c2noc(C34CC5CC(CC(C5)C3)C4)n2)cc1
  -6% | 15 | -0.7 | 18 | -6 | -12%
> CCNc1ccc(S(N)(=O)=O)cc1[N+](=O)[O-]
  1% | 12 | -1.6 | -5 | 1 | -2%[15.4 µM]
> COc1ccc([N+](=O)[O-])cc1NC(=O)CCS(=O)(=O)c1ccc(Br)cc1
  -9% | -6 | -5.8 | -14 | -10 | 0%
> Cc1cccc(C)c1Nc1nnc(SCC(=O)Nc2ncc(C(F)(F)F)cc2Cl)s1
  -27% | 12 | -0.6 | -24 | -1 | -58%[inhibitor]
> O=C(Nc1ccc(C(=O)N2CCCCC2)cc1)c1ccc(Br)cc1
  6% | -1 | -1.1 | 11 | -7 | 8%
> COc1ccc(SCCCn2c(=O)c3c(ncn3C)n(C)c2=O)cc1
  -30% | -7 | 3.6 | -12 | 2 | ?
> O=C(N/N=C/c1ccc[nH]1)c1ccc([N+](=O)[O-])cc1
  3% | -13 | 1.8 | -23 | -9 | -23%
> Cc1nc2ccc(S(=O)(=O)N(C)CC(=O)N3CCc4ccccc4C3)cc2s1
  -24% | 0 | -0.1 | 2 | -17 | -3%
> Cn1cc(Cl)c(C(=O)OCC(=O)Nc2ccc(S(N)(=O)=O)cc2)n1
  10% | -17 | -2.3 | 2 | -6 | -3%[15.4 µM]
> Cc1csc2ncc(C(=O)NC(C)c3ccccc3)c(=O)n12 (stereo not drawn)
  -2% | -1 | -3.7 | 6 | -8 | 18µM*
> CCOC(=O)CNC(=O)C1CCC(CNS(=O)(=O)c2cccc3nsnc23)CC1 (stereo not drawn)
  3% | 0 | -0.9 | 6 | 5 | 18%
> CCN(CC(=O)Nc1c(F)cccc1F)C(=O)CNC(=O)C1CCCCC1
  7% | -12 | -1.8 | 3 | -69 | -14%[15.4 µM]
> COC(=O)/C(=C1/Oc2cc(C)oc(=O)c2S1)C(F)(F)F
  -11% | -83* | -0.1 | ? | 6 | -26%
> CC(=O)c1c(C)n([O-])c2cc(C)ccc2[n+]1=O
  9% | 5 | -1.0 | -2 | -16 | -20%
> Cc1ccc(NC(=O)CSc2nnc(Cn3c(=O)sc4ccccc43)n2C)cc1
  1% | 0 | -6.6 | 0 | -8 | -8%
> Cc1ccc(NC(=O)C2CCN(S(=O)(=O)c3ccc4[nH]c(=O)oc4c3)CC2)cc1F
  -19% | -2 | 3.7 | -6 | 1 | -51%
> CC(C)c1cc(NCCN2CCOCC2)n2c(nc3ccccc32)c1C#N
  7% | 5 | -2.1 | 2 | -5 | 6%
> O=C(CNC(=O)c1ccc(Cl)cc1Cl)OCc1nc2ccccc2s1
  -6% | -2 | -3.0 | -6 | -12 | -19%

Next entries:
Below each compound: gsp antagonist | CtBP-E1A blk | D2 agonist | Six1-Eya2 inh | D2 PAM | gsp ag
> NC(c1csc(Nc2ccc(C(=O)c3ccccc3)cc2)n1)c1ccccc1Cl (stereo not drawn)
  . | -9 | -5.1 | 7 | -1 | .
> CCCOc1ccc(N2C(=O)CC(N3CCN(c4ccccc4OC)CC3)C2=O)cc1 (stereo not drawn)
  2% | -4 | -2.1 | -7 | -3 | -83%[inhibitor]
> OCCc1ccc(-c2ccc(Cl)cc2)o1
  2% | -1 | 0.7 | -10 | -5 | -25%
> Cc1cc(Cl)ccc1OC(C)C(=O)Nc1ccc(C(=O)Nc2ccccc2C(=O)O)cc1 (stereo not drawn)
  32µM* | -27 | 5.5 | -24 | 8 | 5%
> Cc1ccc(N(CC(=O)NC2CCCCC2)C(=O)CNC(=O)c2ccco2)c(C)c1
  3% | 2 | -2.2 | -7 | -6 | 1%
> Cc1ccn2cc(CSc3ccccc3N)nc2c1
  5% | 6 | -1.6 | -2 | -11 | -34%
> CC(=O)Nc1ccc(-c2ccnc3c2CC(C)(C(=O)NCc2ccc(N4CCN(C)CC4)cc2)O3)cc1 (stereo not drawn)
  . | -23 | -0.9 | 6 | -12 | .

Random draw from the library; 1.4% or so of the library scored in one or more.
